AID504770 = growth inhibitors of E. coli YBA685 in a screen for V. cholerae RctB (chromosome II replication) inhibitors; z-score (no concentration beside the values); E. coli YBA685 rctB-dependent plasmid, OD600 growth, 3 h; stronger effect = lower value; 130,000 tested, 0.27% active;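 active means z-score under -2 on both plates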;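 further: wells of about 30 µL received 100 nL stock; score is relative to mean and SD of the test wells; the first replicate is given; strong numbers were not always called active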
Ba CapD inh = inhibitors of Bacillus anthracis CapD enzyme; purified CapD enzyme, fluorescence intensity read-out; stronger effect = lower value; some hits fall short of the stated cut; z-score (concentration not given with the values); 140,000 tested, 0.23% active; AID 492967;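 active means z-score under -4 in either of two replicates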;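 further: stock transfer was 100 nL into about 40 µL; score is relative to mean and spread of the plate; one replicate is shown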
An asterisk follows results filed as active; . = no result given.

SMILES	AID504770	Ba CapD inh
CC(C)Oc1cccc(C(=O)NC(C)(C)C)c1	1.4	-0.18
CC(Oc1ccc(C(C)(C)C)cc1)C(=O)NCC1CCCO1 (stereo not drawn)	0	-0.84
Cc1c(O)ccc2c(=O)c(-c3ccccc3)coc12	-0.15	-1.1
O=C(NCCCc1nc2ccccc2[nH]1)c1ccco1	-0.45	0.14
NC(=O)CCN1CCCCC1c1cccnc1 (stereo not drawn)	1.6	-0.35
CC1CCN(C(=O)c2cc(=O)[nH]c3ccccc23)CC1	0	.
Cc1ccc2[nH]c(=O)c(CNS(=O)(=O)c3ccccc3)c(-c3ccccc3)c2c1	-0.2	4.2
C=C(C)C(=O)NNc1ccccc1	1.3	.
COc1ccc(C2=NOC(C(=O)N3CCCCC3C)C2)cc1 (stereo not drawn)	1.8	0.19
CCOc1ccc(CCNC(=O)C2COc3ccccc3O2)cc1OCC (stereo not drawn)	-0.05	-0.45
CN1C(=O)c2ccccc2C(C(=O)NCC2CCCO2)C1c1c[nH]c2ccccc12 (stereo not drawn)	-1.2	-0.25
CCCc1[nH]nc2c1C(c1ccc(C3C(C#N)=C(N)Oc4n[nH]c(CCC)c43)cc1)C(C#N)=C(N)O2 (stereo not drawn)	.	0.2

Taken from above:
AID504770 with NC(=O)CCN1CCCCC1c1cccnc1 (stereo not drawn) : 1.6
AID504770 with CCOc1ccc(CCNC(=O)C2COc3ccccc3O2)cc1OCC (stereo not drawn) : -0.05
AID504770 with Cc1c(O)ccc2c(=O)c(-c3ccccc3)coc12 : -0.15
AID504770 with Cc1ccc2[nH]c(=O)c(CNS(=O)(=O)c3ccccc3)c(-c3ccccc3)c2c1 : -0.2
Ba CapD inh with O=C(NCCCc1nc2ccccc2[nH]1)c1ccco1 : 0.14

(next part)
SMILES	AID504770	Ba CapD inh
O=C(Nc1ccccc1)Nc1cc(C(=O)c2ccc(Cl)cc2Cl)c[nH]1	.	-0.39
O=C(N/C=C/c1ccc(Cl)c(Cl)c1)NCc1ccc(Cl)cc1	.	-0.46
O=C(c1ccc(C(F)(F)F)cc1)N1CCC(c2nc(-c3cnccn3)no2)CC1	.	-0.29
COCCCN1C(=O)CC(Nc2ccc(N(C)C)cc2)C1=O (stereo not drawn)	-0.2	.
Nc1cccc(-c2nc3ccccc3s2)c1	0.5	13
CCc1ccc(Nc2cc(C(=O)N3CCOCC3)c3ccccc3n2)cc1	-0.25	.
O=C(O)CCNc1ncnc2sc3c(c12)CCCC3	0.55	-0.32
COc1cccc([C@H]2Nc3ccc(S(=O)(=O)Nc4ccc(C)c(C)c4)cc3[C@H]3C=CC[C@H]32)c1OC	0.45	-0.68
COc1cccc(OCCn2cc(C(=O)c3cccs3)c3ccccc32)c1	2.5	-0.33
COC(=O)c1cnn(-c2ccccc2)c1N	-0.1	0.51
CC(C)(C)c1ccc(NC(=O)CSc2nnc(-c3cnccn3)s2)cc1	0.45	0.36
O=C(NCCOc1ccccc1Cc1ccccc1)c1ccc2c(c1)OCO2	1	-0.52
CN(c1ccccc1)C1CCCCC1NS(=O)(=O)c1ccccc1 (stereo not drawn)	1.2	-2
CCOC(=O)/C(=C(\C)O)C1(C(C#N)C(N)=O)CCCCC1 (stereo not drawn)	-0.15	-0.2
CCN1CN=C(SCc2ccc(Br)cc2)NC1	.	-0.84
CCOc1ccccc1NC(=O)c1sc2nc(C)nc(N3CCOCC3)c2c1C	.	0.07
Cc1ccc(-c2csc(-c3cc4ccccc4oc3=O)n2)cc1C	.	-0.04
O=C(Cn1c(=O)n2ncnc2c2c3c(sc21)CCCC3)c1ccccc1	0.65	0.69
O=C(NCc1ccccc1)N1CCn2cccc2C1Cc1ccccc1 (stereo not drawn)	0.05	0.2
Cc1ccc(-n2nc(C)c(/C=N/N3CCOCC3)c2Cl)cc1	-0.45	.
Cc1sc2nc(N)sc(=O)c2c1C	-2.2	.
COc1ccc(-c2cc(C(=O)O)c(C)o2)cc1OC	-0.3	2
Cc1ccc(-c2nc3n(n2)C(=O)CC(c2ccco2)S3)cc1 (stereo not drawn)	3.1	-0.96
O=S(=O)(c1cccs1)N1CCC2(CC1)OCCO2	-0.75	1
CCc1nc2ccccc2[nH]1	-0.35	1.1
Cc1ccc(N(C(=O)Cn2nnc(-c3ccc(C)o3)n2)C(C(=O)NC2CCCCC2)c2ccc(F)cc2)c(C)c1 (stereo not drawn)	-0.65	.
Cc1cc(C)nc(NS(=O)(=O)c2ccc(NC(=O)CCN3C(=O)c4ccccc4C3=O)cc2)n1	.	-0.45
N#Cc1ccccc1NC(=S)NC(=O)c1cc(-c2ccco2)nc2ccccc12	0.25	.
CC1=C(C)C(=O)N(c2ccccn2)C1=O	-0.65	.
Cc1c(C(=O)Nc2c(F)cc(F)cc2Br)sc2ncn(CC(=O)N3CCCCC3C)c(=O)c12 (stereo not drawn)	.	-0.29
Cc1cc(C)cc(OC2CCCCC2NS(=O)(=O)c2ccc(Cl)cc2)c1 (stereo not drawn)	-0.15	0.77
Cc1nc2sccn2c1-c1nnc(SCc2cccc(C(F)(F)F)c2)o1	.	0.42
Cc1ccc(C2Nc3ccc4ncccc4c3C3=C2C(=O)CCC3)cc1 (stereo not drawn)	.	0.15
CCN1C(=O)c2cccc3c(NC(=S)NC(=O)c4ccc(S(=O)(=O)N5CCCC5)cc4)ccc1c23	.	-0.29
Cc1ccc(N=C(NOC(=O)c2ccccc2)c2nonc2N)c(C)c1	.	-0.2
CC(NC(=O)c1ccc(Br)o1)c1ccccc1 (stereo not drawn)	-0.2	-0.25
CC(C)OC(=O)CSC1=C(C#N)C(c2ccco2)C2=C(CCCC2=O)N1 (stereo not drawn)	-0.05	1.4
CC1=C(C)C(=O)C(NCC2CCCO2)=CC1=O (stereo not drawn)	-0.35	.
Cc1cc(C)nc(SCC(=O)N2c3ccccc3-c3c(ssc3=S)C2(C)C)n1	.	-0.24
CCOC(=O)CCn1ccc(=O)[nH]c1=O	1.5	.
N#Cc1c(-c2ccco2)c2c([nH]c1=O)-c1ccccc1OC2	2	65
O=C(NCCSC(=O)c1ccc(F)cc1)c1ccc(F)cc1	.	-0.095
O=C(O)C1CCOCC1	-0.4	.
C=CCOc1ccc(CN2CCN(S(=O)(=O)c3ccc(F)cc3F)CC2)cc1	.	-0.51
O=C(c1ccccc1)c1cccnc1C(=O)O	-0.65	-0.11
N#Cc1cnc(C2COc3ccccc3O2)nc1N (stereo not drawn)	0.1	-0.5
CN(C)CCNC(=O)c1cc(-c2cccs2)nc2ccccc12	-0.25	100
C=CCn1c(SCC(=O)Nc2ccc(C)cc2)nc2sc(CC)cc2c1=O	.	-0.47
O=C(CN1N=C(c2ccccc2)CCC1=O)NCCN1CCN(c2ccccc2F)CC1	0.35	0.09
C=CCSc1ccccc1N	-1.5	.
CC(C)(C)c1cnnn1-c1ccc(NC(=O)c2ccc(Br)o2)cc1	0.15	0.75
CC1(C)CC(NC(=O)C(F)(F)F)C(NC(=O)C(F)(F)F)C(C)(C)N1 (stereo not drawn)	-0.7	-0.29
CC(C)(C)c1ccc(CSCc2nc3ccccc3[nH]2)cc1	1.1	-1.9
O=C(NC(=S)Nc1nc(-c2ccc(Cl)cc2)cs1)C1CC1	0.8	0.41
OC(CSc1ccc(Cl)cc1)(c1ccc(F)cc1)c1ccc(F)cc1	.	-0.28
O=C(O)CCSc1n[nH]c(=S)s1	0.3	.
CC1CC2(C)Oc3ccccc3C3OCC1(COC(=O)NC1CCCCC1)C(C)C32 (stereo not drawn)	.	-0.17
O=C(O)C1=CCNCC1	.	-0.17
O=C(COc1ccc(Cl)cc1Cl)Nc1ccc(-c2nnc3n2CCCCC3)cc1	1.5	-1.1
O=C(NC(=O)C(F)(F)F)N1CCCc2ccccc21	1.6	-0.14
Continued.
SMILES	AID504770	Ba CapD inh
CCOC(=O)C1=NN(c2ccc(Cl)cc2)C2(S1)c1ccccc1C(c1ccc(C(C)(C)C)cc1)=NN2c1ccccc1 (stereo not drawn)	.	-0.23
Cc1ccc2c(Cl)cc(Cl)c(OC(=O)C3CC3)c2n1	-0.9	.
CCC(=O)Nc1ccccc1N1CCN(C(=O)CC)CC1	-0.3	1.2
CC(C)(C)c1cc2nc(C(F)(F)F)cc(N3CCN(S(=O)(=O)c4ccccc4Cl)CC3)n2n1	.	2.2
Cc1nn(CC(=O)NC2CCCCCC2)c2ccccc12	-0.45	-1.6
COc1ccc2c(CC(=O)OCc3cccc(C#N)c3)coc2c1	0.05	.
CCN(Cc1ccccc1)c1ccc(C=Nc2ccc(O)cc2)cc1	0.95	2
CC1CCC2(CC1)NC(=O)N(NC(=S)NCc1ccc3c(c1)OCO3)C2=O (stereo not drawn)	2.2	.
N#Cc1c2c(c(-n3ccnc3)n3c1nc1ccccc13)CCC2	0.5	.
Cc1ccc(-c2cn3c4ccccc4nc3n2CCCN2CCCCC2)cc1	-0.85	2.5
OCCc1nc2ccccc2s1	-0.6	.
CNC(=O)Cn1cc2c(n1)-c1c(oc(C(=O)N3CCCC3)c1C)CC2	-0.3	1.3

Random excerpt: two entries already listed.
SMILES	AID504770	Ba CapD inh
Cc1ccc2c(Cl)cc(Cl)c(OC(=O)C3CC3)c2n1	-0.9	.
Cc1ccc(-c2cn3c4ccccc4nc3n2CCCN2CCCCC2)cc1	-0.85	2.5

(listing goes on)
SMILES	AID504770	Ba CapD inh
O=C(CSc1ccc2c(c1)CCC2)NN1C(=O)NC2(CCCCC2)C1=O	-0.6	.
O=C(NCc1ccccc1)c1ccc2c(c1)N(Cc1ccccc1)C(=O)CS2=O (stereo not drawn)	-0.8	0.33
C=CCc1ccc(OCC(=O)ONN)c(OC)c1	0.7	0.7
O=S(=O)(c1ccccc1)c1ncc(C(F)(F)F)cc1Cl	-0.8	1.2
Cc1cc(=O)oc2cc(OCC(=O)N3CCCC3)ccc12	-0.25	112
O=C(c1ccco1)N1CCN(C(=O)c2cc3c(s2)CCCC3)CC1	0.3	-0.59
Cc1cccc(C2(O)C(=O)c3ccccc3C2=O)c1O	.	0.19
COc1ccc(-c2cc(C(F)F)n3ncc(C(=O)N4CC(C)OC(C)C4)c3n2)cc1 (stereo not drawn)	-0.1	20
CC(=O)O/N=C(\C)c1[nH]c(C)c(/C(C)=N/OC(C)=O)c1C	-0.4	-0.63
CC(C)(C)c1cc(CCCOC(=O)/C=C\C(=O)OCCCc2cc(C(C)(C)C)c(O)c(C(C)(C)C)c2)cc(C(C)(C)C)c1O	.	-0.095
O=S(=O)(c1cccs1)N1CCN(C/C=C/c2ccccc2)CC1	.	-0.8
Cc1ccc(C2=NN(C(=O)CCC(=O)O)C(c3ccc(Cl)cc3)C2)cc1 (stereo not drawn)	.	0.82
CSc1nnc2c3ccccc3n(C)c2n1	.	-0.58
CC1Cc2ccccc2N1C(=O)CSc1nnc(CSc2ncccn2)n1C (stereo not drawn)	2.9	.
Cc1ccc(NC(=O)C2CC2)cc1NC(=O)C1CC1	0.2	-0.02
CCCCNC(=O)C1CCN(S(=O)(=O)c2cnc[nH]2)CC1	-0.7	1.3
CCOc1ccc(-c2nc(CN3CCN(S(=O)(=O)c4ccc(Cl)cc4)CC3)cs2)cc1	-0.45	.
N#CC1C(=S)NC2=C(CCCC2)C12CCCCC2 (stereo not drawn)	0.15	.
CN(Cc1ccco1)C(=O)CSc1nn2c(=O)c(C(C)(C)C)nnc2s1	0.3	.
O=C(N1CCc2ccc(S(=O)(=O)NCCCN3CCOCC3)cc2C1)C(F)(F)F	.	-0.16
NN1C(=O)c2ccccc2C1=O	0.75	.
O=C(O)c1cc2ccccc2cn1	.	0.46
O=S1(=O)C=C2C(C1)SC(=S)N2C1CCS(=O)(=O)C1 (stereo not drawn)	0.15	-0.14
CCN(CC(=O)Nc1ccccc1OC)C(C)C(=O)c1[nH]c(C)c(C(=O)OC)c1C (stereo not drawn)	0.2	.

One compound at a time, as listed above.
O=C(CSc1ccc2c(c1)CCC2)NN1C(=O)NC2(CCCCC2)C1=O as listed: AID504770: -0.6; Ba CapD inh: .
COc1ccc(-c2cc(C(F)F)n3ncc(C(=O)N4CC(C)OC(C)C4)c3n2)cc1 (stereo not drawn) as listed: AID504770: -0.1; Ba CapD inh: 20
O=C(N/C=C/c1ccc(Cl)c(Cl)c1)NCc1ccc(Cl)cc1 as listed: AID504770: .; Ba CapD inh: -0.46

Given in markdown: entries from further up
| structure | AID504770 | Ba CapD inh |
| --- | --- | --- |
| N#CC1C(=S)NC2=C(CCCC2)C12CCCCC2 (stereo not drawn) | 0.15 | . |
| CN(Cc1ccco1)C(=O)CSc1nn2c(=O)c(C(C)(C)C)nnc2s1 | 0.3 | . |
| O=C(N1CCc2ccc(S(=O)(=O)NCCCN3CCOCC3)cc2C1)C(F)(F)F | . | -0.16 |

Remaining list, next part.
SMILES	AID504770	Ba CapD inh
CCc1ccc(NS(=O)(=O)c2ccc3c(c2)SCC(=O)N3)cc1	-0.2	-0.85
Cc1ccc2oc(C(=O)Nc3ccc(S(N)(=O)=O)cc3)cc(=O)c2c1	1.4	2.5
Cc1ccc(/C=C2\SC(=S)N(CC(=O)Nc3nnc(C)s3)C2=O)cc1	.	0.15
CC(C)c1ccc(NC(=O)COc2nncc3ccccc23)cc1	-0.15	0.56
CC(C)(C)C(C(Oc1ccc(Cl)cc1)n1cncn1)n1nnnc1C(c1ccccc1Cl)N1CCCCC1 (stereo not drawn)	.	-0.2
CC1(C)OC(=O)C(=Cc2ccc(-c3ccc(S(N)(=O)=O)cc3)o2)C(=O)O1	-0.55	.
CC(C)(C)C(=O)[C@H]1[C@H](c2cccc(Br)c2)C(C#N)(C#N)[C@@H]2c3ccccc3C=CN21	.	8.9
O=[N+]([O-])c1ccc(C2Nc3ccccc3S2)cc1 (stereo not drawn)	.	41
O=C(O)CON=C1c2ccccc2-c2ccccc21	1.7	.
Fc1ccc(-c2onc3ccc(-c4ccnc(-c5ccccc5)n4)cc23)cc1	.	-0.54
Cc1ccc(NC(=O)c2ccc(-n3nc(C(F)(F)F)c4c3-c3ccoc3CC4)cc2)cc1	-1.5	-0.53
COc1ccccc1N(C)C(=O)c1cc(S(=O)(=O)N2CCCC2)cn1C	0.35	-0.27
